Screening results deposited in PubChem by SRMLSC.
H5N1 CPE: antiviral screen in MDCK cells, H5N1 avian flu; 96,000 tested, 0.07% active; AID 740; cytopathic effect, luminescence, 72 h; stronger effect = higher value; no value below 0 was filed and about half of the inactive calls have no number; reference of the scale not given here; inhibition, % at 50 µM; in the data active means inhibition above about 25%
Numbers without * were called inactive; i = inactive. Some of the compounds tested, so the mix of outcomes need not match the whole.

SMILES,H5N1 CPE
O=C(Nc1ccc(Cl)cc1)c1ccc2c(c1)OCO2,i
CCCc1[nH]nc2c1C(c1ccc(OC(=O)N3CCOCC3)c(OC)c1)C(C#N)=C(N)O2 (stereo unspecified),i
CSc1nc(Cl)c(Cc2ccc(OC(C)C)cc2)c(N2CCOCC2)n1,1.3
CCn1c(SCc2nc3ccccc3nc2C)nnc1-c1cccs1,2.2
O=C(COC(=O)C12CC3CC(CC(O)(C3)C1)C2)N1CCN(S(=O)(=O)c2ccc(Cl)cc2)CC1,6.2
COC(=O)CC1=C(C(=O)OC)C(c2cc(OC)c(OC)cc2OC)C(C#N)=C(N)O1 (stereo unspecified),0.2
C/C(=N/NS(=O)(=O)c1ccc(C)cc1)c1cccc(NC(=O)c2cccc(Cl)c2)c1,0.6
CCOC(=O)c1c(C)n(C)c2ccc(OCC(O)Cn3nc(C)cc3C)cc12 (stereo unspecified),i
COc1ccc(-c2nn(-c3ccccc3)cc2/C=N/NC(=O)c2ccc3c(c2)OCO3)cc1,0.4
Cc1ccc(NC(=O)NC(=O)N(c2ccccc2)S(C)(=O)=O)cc1,i
COC(=O)C1CCN(C(=O)CN2C(=O)NC(CCc3ccccc3)C2=O)CC1 (stereo unspecified),0.5
CCOc1cc(C(=O)Nc2cnccn2)cc(OCC)c1OCC,i
N#Cc1cc2c(=O)n3ccccc3nc2n(CCCN2CCOCC2)c1=O,1.9
O=C(N/N=C/c1cccc(O)c1)c1ccc(COc2ccc3c(c2)CCC3)o1,0.3
COc1ccc(NC(=O)c2oc3ccccc3c2NC(=O)c2ccco2)cc1,i
O=c1oc2ccccc2cc1C1=Nn2c(nnc2-c2cccnc2)SC1,1.3
Cc1nnc(SCC(=O)N2CC(=O)Nc3ccccc32)n1Cc1ccccc1,0.1
Cc1ccc(S(=O)(=O)NCc2ccc3c(c2)cc(C)n3C)cc1,1.5
COc1ccc(CN(C(=O)c2ccccc2OC)C2CCS(=O)(=O)C2)cc1 (stereo unspecified),0.2
O=C(Nc1cccn(Cc2c(Cl)cccc2Cl)c1=O)c1c(Cl)cccc1Cl,4.5

Filtered by structure: the entries above with a furan ring, fused or not.
SMILES,H5N1 CPE
O=C(N/N=C/c1cccc(O)c1)c1ccc(COc2ccc3c(c2)CCC3)o1,0.3
COc1ccc(NC(=O)c2oc3ccccc3c2NC(=O)c2ccco2)cc1,i

Further results:
SMILES,H5N1 CPE
CCn1c(SCC(=O)c2ccc(Cl)s2)nnc1-c1cccs1,1.4
CCCC(=O)Nc1ccc(N2CCCCC2)cc1,0.2
O=C1NC(=O)C2(COC3(CCCC3)OC2)S1,0.2
COc1cc(OC)cc(C(=O)N/N=C/c2ccc(OC)c(COc3ccc4ccccc4c3)c2)c1,0.3
Cc1onc(-c2ccccc2)c1C(=O)Nc1ccc2c(c1)OCCO2,i
N#Cc1c2c(c(-c3ccccc3)[nH]c1=O)CCCC2,0.1
Cc1cccc(-n2nc(C(=O)Nc3ccccc3)n3c(=O)cc(-c4ccccc4)nc23)c1,0.9
O=C(NC1CC2CCCC(C1)N2S(=O)(=O)c1ccccc1)c1ccccc1 (stereo unspecified),1.9
Cc1cc(NC(=O)CSc2nccn2-c2ccc(Cl)cc2)no1,0.8
N#Cc1c[nH]n2c(=O)c3c(nc12)CCCC3,i
CCCC(C)n1[nH]c(=O)cc1N (stereo unspecified),i
CCOC(=O)c1sc(NC(=O)CCSC)nc1C,0.7
Cc1ccc(S(=O)(=O)NCC(=O)N(CC(=O)NCC2CCCO2)Cc2ccccc2)cc1 (stereo unspecified),0.3
COc1ccc(CNC(=O)c2cnc3cc(C)ccn3c2=O)cc1,3.0
O=C(Cc1cccs1)Nc1cccc(-c2nc3ccccc3o2)c1,i
COc1ccc2cc(C(c3nnnn3CCc3ccccc3)N3CCCC(C)C3)c(=O)[nH]c2c1 (stereo unspecified),i
COc1ccccc1NC(=O)NC1(C(=O)N2CCC(O)CC2)CCCCC1,0.3
CC(C)CCNC(=O)C(Cc1ccccc1)NS(=O)(=O)c1ccc2c(c1)c(=O)n(C)c(=O)n2C (stereo unspecified),1.0
Cc1ccccc1NC(=O)c1cccc2nccnc12,2.5
Cc1cccc(C)c1NC(=S)N1CCC(N(C)CC2CCCO2)CC1 (stereo unspecified),0.1
Cc1cc(O)c(NC(=S)NC(=O)c2ccc(-c3ccc(Cl)cc3)o2)cc1C,i
COc1cccc(OC)c1C(=O)Nc1nnc(C(C)C)s1,0.6
O=C(CCCn1c(=S)[nH]c2cc3c(cc2c1=O)OCO3)N1CCN(c2ccccn2)CC1,2.6
COC(=O)c1cccc(S(=O)(=O)N2CCCCC2)c1,0.9
COC(=O)CCC(=O)Nc1ccc(OC)cc1,i
O=C(NC1CC1)c1ccc(-c2nc3ccccc3s2)s1,i
[2H]c1c([2H])c([2H])c(C(=O)c2sc(N3CCCCCC3)nc2-c2ccccc2)c([2H])c1[2H],8.1
CSc1ccc(-c2c(C#N)c(N)nc3c2c(C)nn3-c2ccccc2)cc1,i
COC(=O)c1ccc(CNC(=O)/C=C/c2cc([N+](=O)[O-])ccc2OC(F)F)cc1,0.4
CCOC(=O)C(C(=O)Nc1ccccc1)C1CCCCC1 (stereo unspecified),i
CC(=O)c1cccc(-n2c(CCC(=O)O)ccc2-c2cccs2)c1,0.2
CCCNC(=O)CSc1nnc(C)s1,0.7
CC(=O)Oc1ccccc1C1OCCN1C(C)=O (stereo unspecified),0.1
COc1cc2[nH]c(=O)n(C3CCCCC3)c(=O)c2cc1OC,i
CSCCC(N=Cc1c(O)n(-c2ccc(Br)cc2)c(=O)[nH]c1=O)C(=O)OC(C)(C)C (stereo unspecified),i
O=C1C2C3C=CC(C3)C2C(=O)N1Cc1cccnc1 (stereo unspecified),i
Cc1nn2c3c(cnc2c1-c1ccccc1)C(=O)CC(c1ccccc1)C3 (stereo unspecified),3.3
CCCn1c(=O)c2ccccc2n2c(SCc3c(C(=O)OCC)oc4ccccc34)nnc12,0.5
CC1(C)Cc2c(sc3nc(SCC(=O)NCc4ccccc4)n(-c4ccccc4)c(=O)c23)CS1,i
C=CCN1C(=O)C(CC(=O)Nc2ccccc2)SC1=Nc1c(C)n(C)n(-c2ccccc2)c1=O (stereo unspecified),1.1
OCCOCCNc1ncnc2c1cnn2-c1ccccc1,2.6
O=C(CSc1nnc(CNc2ccc(F)cc2)o1)N1c2ccccc2Sc2ccccc21,1.9
CCOC(=O)/C(C#N)=C\N(C)C,i
COc1ccc2nc(NCc3ccccc3)[nH]c2c1,i
COc1ccc(CC(NC(C)=O)C(=O)NC2CCN(C(=O)NCc3ccccc3)CC2)cc1 (stereo unspecified),i
CC(C)(C)SCCNS(=O)(=O)c1ccccc1,i
CSc1nc(Oc2ccccc2)c2sccc2n1,0.5
COCCNC(=O)c1onc(CSc2cccc(Cl)c2)c1C(=O)O,i
Cc1c(Cc2ccccc2)c(=O)oc2cc(OCc3nn[nH]n3)ccc12,i
COC(=O)c1[nH]c2cc(C)ccc2c1NC(=O)CN1CCN(C(=O)c2ccco2)CC1,i

Continuation.
SMILES,H5N1 CPE
C=C(C)CC1N(c2cccc(OC)c2)C(=O)[C@@H]2C(C(=O)O)[C@H]3C=C[C@@]12O3 (stereo partly specified),0.8
Cc1cc(NC(=O)c2nn3cccnc3c2Cl)no1,1.4
COC(=O)N1CCN(c2ccc(Cl)c(Cl)c2)CC1,1.5
Cc1nc2ccccc2c2oc(C(=O)NCc3ccccn3)cc12,i
CCc1nnc(NC(=O)CSc2nnc(CNc3ccc(F)cc3)n2C2CCCCC2)s1,i
CN(C)c1ccc(N2CN=C3SCC(=O)N3C2)cc1,i
Cc1ccc(Cn2cnc3c(nnn3Cc3ccc(Cl)cc3)c2=O)cc1,i
CCN(CCNC(=O)CN(C)S(=O)(=O)c1cccc2nsnc12)c1ccccc1,i
O=C(CSc1nnc(-c2ccncc2)n1-c1ccc(Cl)cc1)N1CCOCC1,i
O=C(NNC1=NCCC1)c1ccc(Br)cc1,i
Cc1c(NC(=O)c2ccc(Br)o2)c(=O)n(-c2ccccc2)n1C,i
O=C(CSCc1ccccc1)Nc1ccc(S(=O)(=O)N2CCOCC2)cc1,0.6
COc1cc(-c2nc(-c3ccc4c(c3)-c3ccccc3S4(=O)=O)c(-c3ccccc3)[nH]2)cc(OC)c1O,i
C=CCOc1cccc(C2C(C(=O)c3ccco3)=C(O)C(=O)N2CCN(CC)CC)c1 (stereo unspecified),0.7
CCC1(C)Cc2c(sc3nnn(CC(=O)Nc4cccc5ccccc45)c(=O)c23)CO1 (stereo unspecified),i
O=C1NC2(NN1c1ccccc1)C1CC3CC(C1)CC2C3 (stereo unspecified),0.5
O=C(Cn1cc2c(n1)CCCC2)NCC1CCCO1 (stereo unspecified),0.4
Cc1ccccc1C1CC(c2ccccc2OC(F)F)Nc2ncnn21 (stereo unspecified),0.5
CC(C)(C)c1ccc(-c2nnc(NC(=O)c3ccccc3)s2)cc1,3.5
CC(C)N1CC(C(=O)Nc2ccc(Br)c(Cl)c2)CC1=O (stereo unspecified),i
CC(CCc1ccccc1)NS(=O)(=O)c1ccccc1 (stereo unspecified),i
CC(C)Cn1c(-c2ccccc2)nc(=S)c2c1CCCC2,1.6
O=C(Nc1ccccc1C(=O)N1CCCC1)c1cccc(S(=O)(=O)N2CCCCCC2)c1,0.4
Cn1cccc1CNCc1ccccc1Cl,0.5
CCC(c1nnnn1Cc1ccc2c(c1)OCO2)N1CCN(c2ccc(F)cc2)CC1 (stereo unspecified),0.8
Cc1[nH]n(C(C)(C)C)c(=O)c1Sc1ccccc1,0.3
Cc1ccc(NC(=S)NCCO)c(C)c1,0.5
Oc1ccccc1-c1nnc(COc2ccccc2)o1,i
CCOc1cc(/C=N/NC(=O)COc2cccc(C)c2)ccc1OC(=O)c1cccs1,1.0
Cn1[nH]c(=O)c(Cl)c(Cl)c1=O,i
Cc1n[nH]c(C)c1S(=O)(=O)N1CCCC(C(=O)Nc2nccs2)C1 (stereo unspecified),1.6
CC(=O)Nc1cccc(NC(=O)C2CCCN2C(=O)Nc2ccc(C)cc2)c1 (stereo unspecified),i
CC(C)N1C(=O)S/C(=C/c2cccnc2)C1=O,0.9
Cc1nnc(NC(=O)CSc2nnc(Cc3cccn3C)n2C)s1,i
Cc1ccc(C(=O)/C=C/Nc2cccc(O)c2)cc1,i
Cc1ccc(N2CCN(CC(O)COC3CCCCC3)CC2)cc1 (stereo unspecified),0.3
O=S(=O)(c1ccc(NC2CCCCC2)cc1)N1CCOCC1,2.9
CC(=O)NCCc1nc2ccccc2n1Cc1ccccc1,0.2
c1ccc2c(c1)nc1n2CN(Cc2ccc3c(c2)OCO3)CN1,i
COc1ccc(OCC(=O)N2CC3(C)CC2CC(C)(C)C3)cc1 (stereo unspecified),0.0
CC(=O)c1c(C)n(-c2ccc(N(C)C)cc2)c2ccc(OCC(N)=O)cc12,2.4
COc1ccc(Nc2nnc(C)c(=O)[nH]2)cc1,i
CC(C)CCNC(=O)CN(CC1CCCO1)C(=O)CCC(=O)Nc1ccccn1 (stereo unspecified),i
CN(C)C(=O)N1CCCC(C(=O)NCc2ccccc2Cl)C1 (stereo unspecified),i
CCc1c(C)nc(Nc2nc(C)c3cc(OC)ccc3n2)[nH]c1=O,2.8
Cc1cc(C)cc(NS(=O)(=O)c2ccc3c(c2)c(=O)n(C)c(=O)n3C)c1,2.0
CNC(=O)CN1C(=O)CSc2ncccc21,0.3
Cc1ccccc1N/C(=C(/C(Cl)=C(Cl)Cl)[N+](=O)[O-])n1nnc2ccccc21,1.6
CCCCCCOc1ccc(C(=O)n2cnc(N)n2)cc1,i
NC(=O)C1CCN(CC(=O)N2c3ccccc3CCc3ccccc32)CC1,i

Rewritten field by field: part of the list above
Cc1ccccc1N/C(=C(/C(Cl)=C(Cl)Cl)[N+](=O)[O-])n1nnc2ccccc21
  H5N1 CPE: 1.6

CCCCCCOc1ccc(C(=O)n2cnc(N)n2)cc1
  H5N1 CPE: i

CNC(=O)CN1C(=O)CSc2ncccc21
  H5N1 CPE: 0.3

CCc1c(C)nc(Nc2nc(C)c3cc(OC)ccc3n2)[nH]c1=O
  H5N1 CPE: 2.8

Two consecutive records from above, quoted:
SMILES,H5N1 CPE
CC(=O)c1c(C)n(-c2ccc(N(C)C)cc2)c2ccc(OCC(N)=O)cc12,2.4
COc1ccc(Nc2nnc(C)c(=O)[nH]2)cc1,i

Continuation:
SMILES,H5N1 CPE
CCOC(=O)c1c(C=O)c(C)n(Cc2ccc(Cl)cc2)c1C,2.3
Cc1nc(-c2c(C(F)(F)F)noc2-c2ccc(O)cc2O)cs1,i
Cc1ccc(CNC(=O)Cc2csc(Nc3nc(=S)[nH]c4ccccc34)n2)cc1,i
CCC(=O)Nc1ccc(N2CCCCC2)cc1,i
Cc1ccc(S(=O)(=O)NCC23C=CC(O2)C2C(=O)N(c4ccccc4)C(=O)C23)cc1 (stereo unspecified),0.1
CC(=O)NS(=O)(=O)c1ccc(NC(=O)c2ccccc2F)cc1,i
Cc1ccc(Nc2nc(OC(C(F)(F)F)C(F)(F)F)nc(N3CCOCC3)n2)cc1,0.6
N#CCC(=O)Nc1sc2c(c1C(N)=O)CCCC2,2.2
Nn1c(SCC(=O)Nc2ccc(F)cc2)nnc1C1CCCCC1,i
O=C(NCc1ccco1)c1ccc(Br)s1,4.5
COc1ccccc1CNC(=O)c1ccc(OCc2c(C)noc2C)c(OC)c1,0.4
O=C(NCc1cccc(Cl)c1)c1ccc2c(c1)OCO2,i
